Screens (PubChem)
Rango complex inh: prevents formation of the Rango-importin beta complex; Rango CFP/YFP FRET sensor + importin beta, 45 min; Potency, µM (titrated, usually from 92.2 µM), inactives show at the top dose inhibition of complex formation; actives 0.031% (n = 340,000); AID 540263; active = rising FRET ratio curve, often small or poorly fitted; inconclusive = mostly compound fluorescence or quenching in the first reads; inactive = flat curves in all reads;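 also: potency is read from the fitted curve at half-maximal effect; 0% = DMSO wells and 100% = buffer wells lacking importin beta; nearly all actives have a fitted effect of over 15% in size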
Target sequence (Q14974 whole entry, looked up): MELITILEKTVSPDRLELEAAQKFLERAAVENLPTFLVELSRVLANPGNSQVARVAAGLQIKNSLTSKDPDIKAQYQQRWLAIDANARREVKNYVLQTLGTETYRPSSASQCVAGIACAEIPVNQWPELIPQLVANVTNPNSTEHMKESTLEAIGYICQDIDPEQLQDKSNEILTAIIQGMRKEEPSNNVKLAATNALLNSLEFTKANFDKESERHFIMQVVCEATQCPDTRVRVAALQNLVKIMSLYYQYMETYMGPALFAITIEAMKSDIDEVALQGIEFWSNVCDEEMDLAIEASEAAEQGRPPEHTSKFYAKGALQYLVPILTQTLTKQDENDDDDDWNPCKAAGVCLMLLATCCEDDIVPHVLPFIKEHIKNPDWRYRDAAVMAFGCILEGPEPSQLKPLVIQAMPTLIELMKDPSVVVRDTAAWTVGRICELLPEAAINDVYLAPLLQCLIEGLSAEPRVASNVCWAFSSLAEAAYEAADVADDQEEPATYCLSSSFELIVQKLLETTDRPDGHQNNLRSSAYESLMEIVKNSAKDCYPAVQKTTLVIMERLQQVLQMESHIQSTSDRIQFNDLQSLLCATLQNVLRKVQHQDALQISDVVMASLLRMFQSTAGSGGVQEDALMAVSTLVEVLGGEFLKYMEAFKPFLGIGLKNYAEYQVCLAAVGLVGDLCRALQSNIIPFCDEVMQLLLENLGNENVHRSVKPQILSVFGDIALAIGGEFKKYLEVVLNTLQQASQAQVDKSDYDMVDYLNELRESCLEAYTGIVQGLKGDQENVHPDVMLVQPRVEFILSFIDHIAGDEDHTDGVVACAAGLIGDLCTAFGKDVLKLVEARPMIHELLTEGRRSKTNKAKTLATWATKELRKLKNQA
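FRET biosensor Rango (snurportin 1 IBB between N-terminal EYFP and C-terminal Cerulean), 50 nM in PBS/1 mM DTT/0.02% Tween-20/0.1% BSA, preincubated 5 min RT with compound; 0.125 microM importin beta added, 45 min RT, CFP/YFP FRET ratio read.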
miR-21 reporter: miR-21 reporter, rising signal; HeLa miR-21 FLuc reporter, luciferase, 48 h; Potency, µM (series often up to 38.3 µM), for inactives: top-dose reporter change, positive = more light; 340,000 tested, under 10 active; AID 2288; active = well fitted rising curve with a large enough effect; inconclusive = small, poorly fitted or top-dose-only effect; inactive = no such curve, though single readings can be large or run the other way;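 also: % of control where 0% means no effect; miR-21 action dims this reporter so a rising signal means less miR-21 action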
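HeLa cells stably expressing CMV-driven firefly luciferase with a downstream miR-21 binding sequence, endogenously expressing miR-21, were treated with titrations (up to about 40uM final) for 48 hours at 37 degree Celsius. Luciferase luminescence was read after lysis.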
Rango dissoc inh: inhibition of RanGTP-driven Rango-importin beta dissociation; O95149+P62826; Biochemical FRET Rango-importin beta, RanGTP-induced dissociation; Potency, µM (titrated, usually from 46.1 µM), inactives show at the highest dose activity change, negative = inhibition; actives 0.071% (n = 340,000); active means falling FRET ratio curve, often poorly fitted, with flat reads before Ran was added; inconclusive means other falling curves, or compound fluorescence or quenching; inactive means flat or rising ratio curve;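 also: potency is read from the fitted curve at half-maximal effect; % of control where 0% means no effect; nearly all actives have a fitted effect of over 45% in size; -100% = wells without RanGTP and RCC1; the record marks most hits as doubtful in a second field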
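Rango FRET biosensor (snurportin-1 IBB flanked by N-terminal EYFP and C-terminal CFP10) at 0.1 uM, with 0.25 uM importin beta in PBS, 1mM DTT, 0.02% Tween-20, 0.1% BSA. 0.6 uM Ran, 2mM GTP and 0.2 uM RCC1 were then added for 45 min at room temperature. Inhibition read as loss of FRET rise.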
GLA inh pH 4.5: blocks human alpha-galactosidase A at pH 4.5 | purified enzyme, 4-MU-alpha-Gal fluorescence, pH 4.5 | P06280 | activity change, negative = inhibition, % at 105 µM | AID 1467 | 230,000 tested, under 10 active; inconclusive = small, poorly fitted or top-dose-only inhibition, or a rising curve; inactive = flat fitted curve, though single readings scatter; no compound was filed as active;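 also: 0% = full activity with enzyme and -100% = basal without enzyme; dose as in the result columns while the protocol names 77 µM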
An asterisk follows results filed as active; u = inconclusive; x = not tested or not shown; & = joins results of further samples. Not all compounds are listed; count on the stated rates, not on these rows.

Second line of a record – Rango complex inh, miR-21 reporter, Rango dissoc inh, GLA inh pH 4.5
> Cc1ccc(Oc2ncccc2NC(=O)CC(CC(=O)O)c2ccccc2)c2c1CCC2 (stereo not given)
→ 0.0%, -0.2%, -12.9%, 5.2
> O=C(COC(=O)c1cn(-c2ccccc2)nc1-c1ccccc1)c1ccc([N+](=O)[O-])cc1
→ x, -6.0%, x, 2.5
> COc1ncccc1C(=O)NC1CCCc2c1cnn2-c1ccc(C)c(C)c1 (stereo not given)
→ -2.6%, 5.2%, 34.1%, x
> CCOC(=O)N1CCN(CC(=O)Nc2cc(C)nn2-c2nc3ccccc3s2)CC1
→ 1.3%, -11.7%, 5.5%, -0.9
> COCCSc1ccccc1C(=O)Nc1ccc(Cl)cn1
→ -1.4%, -11.2%, 4.0%, -0.6
> COc1ccc(NC(=O)Cc2coc3cc(C)ccc23)cc1S(=O)(=O)N1CCOCC1
→ -2.8%, -24.6%, 18.4%, 6.4
> O=C(COc1ccccc1)NC(=S)Nc1ccc(Br)cn1
→ -0.1%, 3.1%, -7.6%, 3.2
> CC(C)(CSc1nncn1/N=C/c1ccco1)NS(=O)(=O)c1ccc(Cl)cc1
→ -1.0%, -7.9%, 8.7%, 1.9
> CN(C)NC(=O)C12CCC(C)(C(=O)O1)C2(C)C (stereo not given)
→ 0.4%, 0.4%, 3.1%, -2.4
> CCOC(=O)c1[nH]c2ccccc2c1NC(=O)c1nonc1C
→ -1.9%, -0.7%, -13.0%, -9.4
> Cc1ccc(S(=O)(=O)NCCSc2nnnn2-c2ccc(C(N)=O)cc2)cc1
→ 2.4%, -2.2%, -2.6%, -0.2
> OCCN1CCN(CCSc2ccccc2)CC1
→ -0.1%, 3.6%, -19.4%, -1.6
> COc1ccc(CCNC(=S)Nc2ccccc2C)cc1
→ 7.9%, -9.7%, -4.4%, 5.6
> Cc1cc(NC(=O)c2ccc(N3C(=O)CCC3=O)cc2)no1
→ -0.7%, 1.2%, 0.8%, -2.3
> OC(COc1ccc(CNCc2cccnc2)cc1)CN1CCc2ccccc2C1 (stereo not given)
→ -3.5%, -3.1%, u, -2.5
> COc1cc2c(C)nc3c(cnn3-c3ccccc3)c2cc1OC
→ 0.7%, -18.9%, -19.9%, 5.1
> Cc1cccc(-n2c(C)c(C)c3c(N)ncnc32)c1
→ 0.7%, -26.1%, -3.7%, x
> COc1ccc(O)c(/C=N/N=C2/C(=O)Nc3ccccc32)c1
→ 0.8%, 0.3%, 6.1%, -7.6
> CCCCCCOc1ccc(N2C(=O)CC(N3CCN(CCN=CC4=C(O)CC(C)(C)CC4=O)CC3)C2=O)cc1 (stereo not given)
→ 1.1%, 0.1%, -7.4%, 7.6
> C=CCn1c(SCC(=O)Nc2ccc(C(=O)OC(C)C)cc2)nnc1-c1cccs1
→ 3.1%, 4.4%, 11.7%, -4.3
> CS(=O)(=O)Nc1ccccc1C(=O)NCCSCc1ccccc1
→ -0.4%, -3.8%, -12.3%, 4.7
> O=C(COc1ccc(Br)cc1CNC1CCCC1)Nc1ccccc1
→ -0.7%, 3.1%, -3.9%, -8.1
> CN(C)C(=O)c1cc([N+](=O)[O-])ccc1O
→ -1.7%, 0.3%, -4.9%, -2.8
> O=C(Nc1c2c(nn1-c1ccc(F)cc1)CS(=O)C2)c1ccc(Br)o1 (stereo not given)
→ -4.4%, 0.4%, 26.1%, x
> CC(C)CN1CCN(Cc2cccn2-c2ccc(Cl)cn2)CC1CCO (stereo not given)
→ 0.1%, -2.0%, -14.1%, -20.3
> CCOC(=O)C1CCCN(c2c(NCCc3ccc(S(N)(=O)=O)cc3)c(=O)c2=O)C1 (stereo not given)
→ -2.7%, -0.6%, -0.5%, -1.6
> CCSc1nc(C)c(CCOc2cccc(C)c2)c(=O)[nH]1
→ -0.1%, 0.8%, -8.3%, -2.3
> Clc1ccc(CNCC2CCCO2)cc1 (stereo not given)
→ 8.4%, -10.2%, 1.5%, x
> COC(=O)C1=C(C)N(Cc2ccccc2)C(=NCc2cc(OC)c(OC)c(OC)c2)N[C@H]1c1ccccc1
→ 0.9%, 2.7%&9.2%, 7.3%, x
> N#Cc1ccc(Oc2ccc(-c3cnc4ccccc4n3)cc2)cc1C#N
→ -2.4%, 0.7%, -1.5%, 3.0
> CN(Cc1ccc(Br)cc1)C(=O)CCN1C(=O)c2cccc([N+](=O)[O-])c2C1=O
→ -0.3%, -0.5%, 2.9%, x
> O=C(O)CONC(=O)c1cc(OCC(F)(F)F)ccc1OCC(F)(F)F
→ -0.1%, -1.8%, 6.7%, -15.8
> Cc1cccc(C)c1Nc1nnc(SCC(=O)NC(=O)c2cccn2C)s1
→ 1.7%, -8.6%, -12.0%, 6.6
> CC(C)N(CCn1cnc2c([nH]c3ccccc32)c1=O)C(C)C
→ -0.6%, 3.0%, 14.7%, 3.3
> CN(C)S(=O)(=O)c1ccc(C(=O)OCC(=O)Nc2ccc3c(c2)OCO3)cc1
→ 0.3%, x, -8.3%, x
> CCOC(=O)CSc1nc2ccccc2c(=O)n1CCN1CCOCC1
→ 0.7%, -2.5%, -14.1%, 4.5
> COc1ccccc1CNC(=O)c1ccc(CS(=O)(=O)c2ccccc2C)o1
→ -1.6%, 1.6%&0.0%, -10.9%, x
> CSc1nc(NCc2ccco2)c2sc3nc(C(C)C)c4c(c3c2n1)CC(C)(C)OC4
→ 0.3%, -0.4%, 0.8%, 4.0
> Cc1ccnc(NC(=O)C2CCCN(c3ncnc4c3nc3n4CCCCC3)C2)c1 (stereo not given)
→ 4.8%, 3.6%, 13.7%, x
> CCOC(=O)c1c(NC(=O)CSc2nnc(CN3CCOCC3)n2C)sc2c1CCCC2
→ -0.5%, -3.6%, 2.8%, 1.9
> c1cc(CNC23CC4CC(CC(C4)C2)C3)ccn1
→ -0.5%, -2.5%, 5.2%, 10.0
> CCN(CC)c1ccc(NC(=O)CSc2nc(C)cc(=O)[nH]2)cc1
→ 1.7%, -11.9%, 13.9%, 0.0
> Cc1cccc(-c2noc(Cc3ccc(Cl)cc3)n2)c1
→ -0.7%, -33.2%, 3.4%, -8.0
> O=C(Nc1ccc(NC(=O)C2CC2)cc1)c1cccs1
→ -0.4%, -53.5%, 0.6%, x
> O=C(NNC(=O)c1cnccn1)c1ccc(Cl)c(Cl)c1
→ -0.6%, 17.7%, 4.2%, x
> O=C(CN1C(=O)NC2(CCOc3ccccc32)C1=O)Nc1cccc([N+](=O)[O-])c1 (stereo not given)
→ -3.6%, x, 9.9%, x
> NC(=O)c1ccsc1NC(=O)CCc1ccccc1
→ -2.0%, -43.9%, -14.9%, x
> COc1ccc(NC(=O)COc2ccccc2Cc2ccccc2)cc1S(=O)(=O)N1CCOCC1
→ 10.0%, x, -7.7%, x
> CSc1ccc(CN(C)C(=O)c2cc(Cl)c3c(c2)OCCO3)cc1
→ -0.8%, -0.6%, 10.3%, x
> CCN1C(=O)N(C)[C@@H](c2ccccc2)C(C(C)=O)=C1C
→ -0.4%, x, 13.9%, 7.1
> Cc1ccc(-c2csc(NC(=O)C3=COCCO3)n2)cc1C
→ -0.7%, x, -13.2%, x
> COc1ccccc1CNS(=O)(=O)c1ccc2c(c1)CC(C)N2C(=O)C1CCC1 (stereo not given)
→ 1.1%, 16.0%&26.6%, -5.9%, x
> Cc1ccc(C(C)C)cc1OCC(=O)Nc1nnc(C2CC2)s1
→ 4.1%, x, -14.7%, x
> O=S(=O)(c1ccc(Br)cc1)c1nc(-c2ccccc2)oc1NCc1cccnc1
→ -1.3%, -4.2%, 1.4%, 2.8
> O=C(NCC1CCCO1)NC1(C(F)(F)F)Oc2ccccc2O1 (stereo not given)
→ 1.7%, -30.3%, -2.8%, 7.6
> COC(=O)C1(O)CC(CC(C)C)=NN1C(=O)c1ccccc1 (stereo not given)
→ 6.1%, -2.3%, -7.0%, -7.8
> CC(C)c1ccc(OCC(=O)NC2=NCCS2)cc1
→ 2.1%, -34.1%, 0.0%, -0.8
> COc1ccc(CNC(=O)Nc2cc(C)cc(C)c2)cc1
→ -2.1%, -26.3%, 17.4%, 1.2
> Cc1cc(Br)ccc1OCCOCCN1CCCC1
→ 0.7%, -10.2%, 12.3%, x
> O=C(Nc1ccc(Br)cc1)c1cnccn1
→ 6.9%, -49.4%, 0.3%, 1.2

Following part:
Second line of a record – Rango complex inh, miR-21 reporter, Rango dissoc inh, GLA inh pH 4.5
> CC1CC2C3CCC4=CC(=O)CCC4(C)C3CCC2(C)C1(O)C(=O)CO (stereo not given)
→ u, x, u, x
> COC(=O)c1csc2c(C(F)(F)F)cc(N3CCN(C(=O)Nc4ccccc4)CC3)nc12
→ -3.4%, -6.6%, 2.0%, 13.7
> CC(=O)c1ccc(S(=O)(=O)Nc2cccc(-c3cn4c(n3)SCC4)c2)cc1
→ 0.3%, 2.5%, 0.2%, -6.8
> O=C(c1ncn[nH]1)N1CCN(c2nc(-c3ccccc3)cs2)CC1
→ 1.4%, -18.9%, 13.1%, -1.0
> CC(=O)Nc1cccc(C(=O)NC2CCCc3c2cnn3-c2ccc(C(C)(C)C)cc2)c1 (stereo not given)
→ -2.2%, 27.2%, 0.1%, x
> COc1ccccc1CNC(=O)COC(=O)c1c(C)nn(-c2ccccc2)c1Cl
→ 0.0%, 2.6%, -4.9%, x
> CC(=O)c1cccc(NC(=O)C(C)OC(=O)CCc2nc3ccccc3c(=O)[nH]2)c1 (stereo not given)
→ -2.6%, x, 1.8%, x
> CN1C(=O)N(C)C2(c3ccccc3)Nn3c(s/c(=C/c4ccccc4F)c3=O)=NC12c1ccccc1 (stereo not given)
→ x, 0.6%, x, -3.0
> O=C(COC(=O)c1cc(Br)ccc1Cl)NC(=O)NCc1ccccc1
→ 1.0%, 1.6%, -24.0%, 3.7
> Cc1ccc(S(=O)(=O)N/N=C2/CC(=O)CC(C)(C)C2)cc1[N+](=O)[O-]
→ -3.3%, -1.2%, -7.7%, -0.9
> Cc1c(C(=O)N2CCCCC2)c(S(=O)(=O)NCc2ccccc2Cl)c(C)n1C
→ 0.3%, -1.5%, 1.5%, x
> CN(C(=O)c1cccc(NC(=O)Cc2ccc(NC(=O)C3CCCN(C(=O)C4CCCCC4)C3)cc2)c1)C1CCCCC1 (stereo not given)
→ 0.7%, x, 3.2%, x
> COCCCNC(=O)CSc1nc2ccccc2c(=O)n1CCCN1CCCCC1
→ -0.1%, -0.3%, -22.7%, x
> Cc1[nH]nc(N)c1N=Nc1ccc(Br)cc1
→ x, -29.6%, x, 0.9
> COc1cc(/C=N/NS(=O)(=O)c2ccc3ccccc3c2)ccc1OCc1ccc(C(=O)O)cc1
→ 3.9%, -62.8%, 15.3%, -14.5
> O=C(Nc1ccccc1)c1[nH]ncc1[N+](=O)[O-]
→ 2.4%, -8.3%, 1.5%, -6.6
> Cc1ccc(S(=O)(=O)NCCc2c[nH]c3ccccc23)cc1
→ -1.1%, -1.1%, -18.3%, x
> Cc1ccc(CNC(=O)CN2CCCC(C)C2)cc1 (stereo not given)
→ -4.2%, -10.0%, -13.1%, 3.9
> CN(C(=O)CSc1nnc(Cc2cccs2)n1C1CC1)C1CCS(=O)(=O)C1 (stereo not given)
→ 1.4%, x, 7.2%, x
> c1ccc(N=C(c2cccs2)N2CCOCC2)cc1
→ -5.2%, -12.0%, u, -13.0
> CCC(NC(=O)NNC(N)=S)(C(F)(F)F)C(F)(F)F
→ 2.0%, 8.1%, 2.4%, -6.5
> O=C(NCc1ccccc1)C1=C[C@@H](c2ccc3c(c2)OCO3)C[C@@H](OCCCCO)O1
→ -0.5%, x, 4.6%, x
> COC(=O)c1[nH]c2ccccc2c1NC(=O)c1ccccc1F
→ -2.1%, 7.0%, -5.3%, 0.4
> Cc1cccc(/C=N/NC(=O)NC23CC4CC(CC(C4)C2)C3)n1
→ -5.0%, -30.5%, -0.4%, -3.5
> CCOc1ccc(N(CC(=O)NC2CCC(C)CC2)S(=O)(=O)c2c(C)noc2C)cc1 (stereo not given)
→ 2.1%, -0.1%, 6.7%, x
> COc1cc(CN2CCN(Cc3ccc(SC)cc3)CC2)cc(OC)c1O
→ 3.3%, -1.3%, 9.3%, 2.8
